Source: PubChem
VDR inhibitor: blocks the human vitamin D receptor | P11473 | hit rate 0.93% among 400,000 | AID 504847 | VDR-SRC2-3 peptide fluorescence polarization, 2 h | Potency, µM, for inactives: max response, negative = inhibition, usual class: inhibitors; active = well fitted inhibition curve with a large enough effect; inconclusive = small, poorly fitted or top-dose-only effect, or another doubt; inactive = no such curve, though single readings can be large or run the other way; also: series mostly up to about 120 µM
Target sequence (P11473 whole entry, looked up): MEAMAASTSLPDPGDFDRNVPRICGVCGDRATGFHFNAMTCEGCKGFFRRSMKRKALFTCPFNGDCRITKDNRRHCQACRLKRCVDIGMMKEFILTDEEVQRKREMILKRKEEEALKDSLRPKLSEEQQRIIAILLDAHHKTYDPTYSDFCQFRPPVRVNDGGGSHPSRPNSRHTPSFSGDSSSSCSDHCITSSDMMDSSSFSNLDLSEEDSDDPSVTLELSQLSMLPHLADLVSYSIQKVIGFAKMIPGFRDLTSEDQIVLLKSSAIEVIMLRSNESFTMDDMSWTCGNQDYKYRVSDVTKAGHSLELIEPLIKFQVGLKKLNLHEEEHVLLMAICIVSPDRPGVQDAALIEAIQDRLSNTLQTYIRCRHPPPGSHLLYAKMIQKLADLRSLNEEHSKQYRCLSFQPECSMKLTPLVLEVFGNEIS
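After 23 nl compound addition and a short centrifugation, plates sat for 2 hours at ambient temperature; polarization of fluorescence then indicated loss of VDR binding to peptide SRC2-3.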
An asterisk follows results filed as active; u = inconclusive; [ ] = another dose, or the depositor's remark. % is scaled to controls: 0 for no effect and ±100 for the full control effect; potency is read from the fitted curve at half-maximal effect.

Structure | VDR inhibitor
CCOC(=O)N1CCN(C(=O)c2ccccc2SCC(=O)NCC2CCCCC2)CC1 | -2%
CCOC(=O)C(C)Oc1ccsc1C(=O)OC (stereo not drawn) | -11%
O=C(CNS(=O)(=O)c1ccc(C(=O)N2CCCCC2)cc1)N1CCCCC1 | -10%
Cc1cccn2c(=O)c3cc(C#N)c(=NC(=O)c4cccs4)n(CCCOC(C)C)c3nc12 | 5%
C=Cc1c(C)/c2[n-]/c1=C\c1[n-]c(c(CC)c1C)/C=c1\[n-]c3c(c1C)C(=O)C(C(=O)[O-])C=3c1[n-]c(c(C)c1CCC(=O)[O-])\C=2.[Cu].[Na+].[Na+] (stereo not drawn) | 32µM*
Cn1nc(C(F)(F)F)c2cc(NC(=O)OCc3ccc(C(C)(C)C)cc3)sc21 | 5%
O=C(Nc1cccnc1)c1ccc(-c2cc(Cl)ccc2Cl)o1 | 6%
O=C(Nc1ccccc1)C(=O)Nc1cccnc1 | -3%
C(=C\c1ccccc1)/CN1CCN(Cc2nc(Cc3ccccc3)no2)CC1 | -3%
Cc1nn(-c2ccccc2)c(Oc2ccccc2)c1C=O | -5%
COc1ccc(-n2nc(C(=O)Nc3ccc(C(C)=O)cc3)nc2-c2ccccc2)cc1 | 0%
C=CCN1C(=O)c2ccc(C(=O)N(C)CC(=O)Nc3ccccc3C(F)(F)F)cc2C1=O | 12%
COc1ccc(CCN(Cc2ccc(C(C)C)cc2)S(=O)(=O)c2ccc(S(=O)(=O)N(C)C)cc2)cc1OC | 1%
O=C(CN(C(=O)CNS(=O)(=O)c1ccccc1)c1ccc2c(c1)OCCO2)NC1CCCCC1 | 3%
CN1CCC(NC(=O)c2ccncc2)CC1 | 30%
CCCc1nnc(SCC(=O)N2C(C)CCCC2C)n1CC1CCCO1 (stereo not drawn) | 0%
Nn1c(N2CCCCC2)nc2ccccc21 | 0%
CCOC(=O)CC(NS(=O)(=O)Cc1ccccc1)c1ccc(C)cc1 (stereo not drawn) | 7%
Cc1csc(NC(=O)CSc2ccc3nnc(-c4ccncc4)n3n2)n1 | -21%
COc1nc(C)nc(C)c1Oc1ccc(Cl)cc1Cl | 8%
CCOC(=O)Cn1c(=NC(=O)CSC(C)=O)sc2ccccc21 | -10%
COC(=O)Nc1ccc(S(=O)(=O)N2CCCc3cccc(O)c32)cc1 | 1%
COC(=O)c1c(C)cc(C)c2c1CC(C)(C)C2=O | -20%
Cc1cccc(-c2nc(Cn3c(=O)cc(-c4ccccc4)c4c(C)nn(C)c43)c(C)o2)c1 | 8%
COc1ccc(-c2cc(C(F)(F)F)nc(SCCC(=O)Nc3ccc(OC)c(OC)c3)n2)cc1 | -4%
CCn1c(-c2ccccc2)c[nH]c1=S | -16%
Cc1ccc(Cn2nnc3c(=O)[nH]c(C4CCN(S(=O)(=O)c5ccccc5)CC4)nc32)cc1 | 5%
CC1(C)CC(=O)C=C(NCC2CCCO2)C1 (stereo not drawn) | -3%
COc1ccc2[nH]cc(CCN3C(=O)c4ccc(C(=O)O)cc4C3=O)c2c1 | -1%
C/C(CC(=O)Nc1ccc2c(c1)OCCO2)=N\NC(=O)COc1cccc(C)c1 | -26%
COc1cccc(/C=N/n2cnc3ccccc32)c1OC | 5%
O=S(=O)(Nc1ccc2cn[nH]c2c1)c1ccc(Cl)cc1 | -9%
Cc1cc(Nc2ccc(F)cc2)nc(-n2nc(C)cc2C)n1 | -8%
Cc1ccc(NC(=O)C2C3CC4OC(=O)C2C4C3)cc1Cl (stereo not drawn) | 3%
Cc1cc(C)n(-c2ccc(S(N)(=O)=O)cc2[N+](=O)[O-])n1 | -4%
ON/C=N/C(=S)Nc1ncc(C(F)(F)F)cc1Cl | -4%
CN1CCN(c2nc(-c3ccc4c(c3)OCO4)nc3ccccc23)CC1 | -7%
O=S(=O)(Nc1ccc(Cl)cn1)c1ccc(F)cc1 | 0%
CCOc1c(CC2C(=O)Nc3ccc(Br)cc32)cccc1OC (stereo not drawn) | -11%
Cc1ccccc1Cn1c(C(=O)OC(C)C)cc2c1ccn2C | 0%
CC(Oc1ccc(Cl)cc1)C(=O)Nc1ccc(S(=O)(=O)Nc2nccs2)cc1 (stereo not drawn) | 12%
COc1ccc(C(=O)N2CCC(c3c[nH]c4ccccc34)(c3c[nH]c4ccccc34)CC2)cc1 | 10%
CCc1ccc(/C=C(/C#N)c2nc(-c3ccc(C)cc3)cs2)cc1 | -16%
CC1CCC2C(=O)N(c3ccc(NC4CCCCC4)c([N+](=O)[O-])c3)C(=O)C2C1 (stereo not drawn) | -24%
O=c1cc(-c2cccc(-c3ccc(C(F)(F)F)cc3)c2)c2cc3c(cc2o1)OCO3 | -2%
COc1ccc2c(c1)O[C@H](c1ccc3c(c1)OCO3)[C@@H](OC(=O)N[C@H](C)C1CCCCC1)C2=O | -3%
O=C(Nc1ccc(F)cc1)c1cc(S(=O)(=O)Nc2ccc(F)cc2)cs1 | 12%
O=C1C2C3C=CC(C3)C2C(=O)N1CNc1ccccn1 (stereo not drawn) | 4%
O=Cc1ccc(Oc2nc(Cl)ncc2F)cc1 | -16%
COc1cc(OC)c(NC(=O)Cn2c(=O)cc(C)c3c(C)nn(-c4ccc(C)cc4)c32)cc1Cl | 1%

2 entries drawn at random from those above, as already listed:
Structure | VDR inhibitor
CC(Oc1ccc(Cl)cc1)C(=O)Nc1ccc(S(=O)(=O)Nc2nccs2)cc1 (stereo not drawn) | 12%
CC1(C)CC(=O)C=C(NCC2CCCO2)C1 (stereo not drawn) | -3%

(cont.)
Structure | VDR inhibitor
Cc1ccc2c(c1)[nH]c1c(=O)n(Cc3ccco3)cnc12 | u
O=C1CCC(c2ccccc2)N1c1ccccc1 (stereo not drawn) | -2%
CCOc1ccccc1NC(=O)C(OC(=O)c1ccccc1NS(=O)(=O)c1cccs1)c1ccccc1 (stereo not drawn) | -5%
CCOc1ccc(OCC)c(NC(=O)C2CCN(c3nnc(-n4cccc4)s3)CC2)c1 | 7%
Cc1cc(C(=O)Nc2ccon2)ccc1[N+](=O)[O-] | -7%
CCC(C(=O)NCCN1CCOCC1)n1nc(C)n2c(cc3sccc32)c1=O (stereo not drawn) | -10%
COc1ccc2c(c1)c1c(c(=O)n(-c3ccc(OC)c(OC)c3)c(=O)n1Cc1ccccc1F)n2C | 14%
Cc1ccc(NC(=O)OCC(F)(F)C(F)F)cc1NC(=O)OCC(F)(F)C(F)F | 3%
Clc1ccccc1N1CCN(c2ncnc3nc[nH]c23)CC1 | -7%
Cc1ccc(S(=O)(=O)N2CCOCC2)cc1C(=O)OCC(=O)NCc1ccc2c(c1)OCO2 | 8%
O=C(O)c1cc(-c2ccccc2)n(-c2ccccc2)n1 | -15%
CCOc1ccc(NC(=O)c2c(C)nn(-c3ccc(F)cc3)c2-n2cccc2)cc1 | -5%
COc1cc(/C=C/C(=O)N2CCc3ccccc3C2)cc(OC)c1OC | -4%
CC(C)CNC(=S)NC1CC2CCCC(C1)N2C1CCCCC1 (stereo not drawn) | -22%
Cc1ccsc1C(=O)OCC(=O)NCCC1=CCCCC1 | 12%
Cc1ccc2cc(C#N)c(NCCNC(=O)C3CCC3)nc2c1C | 12%
COCCCn1c(=O)/c(=C\c2ccccc2OC(F)F)s/c1=C(/C#N)C(=O)N1CCOCC1 | -9%
Cc1ccccc1-c1cc(N2CCNCC2)ncn1 | 45µM*
Cc1c(C#N)c2ccccc2n1CC(=O)N1CCc2ccccc2C1 | -8%
O=C(COc1ccc2ccc(=O)oc2c1)NCCCN1CCCC1=O | -1%
CCCCn1c(SCC(=O)N2CCOCC2)nnc1-c1cccs1 | 12%
O=c1[nH]c(SCc2cccc(F)c2)nc2c1CCCC2 | -3%
COc1ccc(N2CC(NC(=O)/C=C\c3ccccc3)CC2=O)cc1OC (stereo not drawn) | 18%
CCOC(=O)N1CCC(N2C(=O)c3ccccc3C2Nc2ccc(S(=O)(=O)N(CC)CC)cc2)CC1 (stereo not drawn) | 1%
CC1(C)CN(c2cccc(-c3ccnc4ncnn34)c2)C1=O | -19%

The last 6 records of the part above lead into the next:
Structure | VDR inhibitor
O=C(COc1ccc2ccc(=O)oc2c1)NCCCN1CCCC1=O | -1%
CCCCn1c(SCC(=O)N2CCOCC2)nnc1-c1cccs1 | 12%
O=c1[nH]c(SCc2cccc(F)c2)nc2c1CCCC2 | -3%
COc1ccc(N2CC(NC(=O)/C=C\c3ccccc3)CC2=O)cc1OC (stereo not drawn) | 18%
CCOC(=O)N1CCC(N2C(=O)c3ccccc3C2Nc2ccc(S(=O)(=O)N(CC)CC)cc2)CC1 (stereo not drawn) | 1%
CC1(C)CN(c2cccc(-c3ccnc4ncnn34)c2)C1=O | -19%
O=C(CC(=O)c1cccs1)c1ccncc1 | 7%
CC(=O)N1c2ccc(S(=O)(=O)N3CCN(c4cc(Cl)ccc4C)CC3)cc2CC1C (stereo not drawn) | 18%
O=S(=O)(c1ccccc1)c1cnn2c(C(F)(F)F)cc(-c3ccccc3)nc12 | 0%
O=C(c1cccs1)C1CCCN(Cc2nc(Cc3ccccc3F)no2)C1 (stereo not drawn) | 8%
C=CC[C@H](CC(=O)N(CCO)Cc1ccccc1)C(=O)N[C@@H](COC(=O)[C@H](CC=C)CC(=O)OC(C)(C)C)Cc1c[nH]c2ccccc12 | 15%
CCN(CC)C(=O)CNc1ccc(C(F)(F)F)cc1[N+](=O)[O-] | -7%
O=C(NCCCc1ccccc1)[C@@H]1Cc2ccccc2CN1 | 12%
COc1ccc2c(c1)C=C(CN1CCC(CO)(CCc3ccccc3)CC1)CO2 | 1%
CCC(C)NC(=O)CSc1ccc(Cl)cc1 (stereo not drawn) | -2%
COCCNC(=O)c1c(CS(=O)(=O)c2ccccc2)noc1C(=O)NCc1ccccc1 | 0%
COc1ccc(C2c3c(n(C)c4ccccc34)C(=O)N2CC(=O)Nc2ccccc2F)cc1 (stereo not drawn) | 3%
O=C(Nc1nnc(-c2ccccc2F)s1)c1ccccc1F | 5%
COc1cc(CN2CCCC(C(=O)Nc3ccccc3Oc3cccnc3)C2)ccc1F (stereo not drawn) | -3%
CCc1cccc(CC)c1NC(=O)CCS(=O)(=O)c1ccc(Br)s1 | -1%
Nc1ccc(C(=O)OCc2nc3c(ccc4ccccc43)[nH]2)cc1 | -14%
CC(C)(CN1CCCCC1)NS(=O)(=O)c1ccc(Cl)cc1 | 4%
COc1ccc(-c2nn(-c3ccccc3)cc2/C=C\C(=O)Nc2ccc(C(=O)O)cc2)cc1 | -1%
Cc1ccc(C)c(C(=O)COC(=O)CNS(=O)(=O)c2ccccc2)c1 | 2%
Cc1noc(C)c1CC(=O)N1CCCC(C(=O)c2ccc(C(C)(C)C)cc2)C1 (stereo not drawn) | 11%
O=C(Nc1cccc(Cl)c1)c1ccc(F)c(S(=O)(=O)N2CCC3(CC2)OCCO3)c1 | 13%
FC(F)(F)c1ccc(/C=N/NC(=S)NC2CCCCC2)cc1 | -6%
Cc1c(C(=O)C(=O)NCc2ccco2)c2ccccc2n1C | -10%
COC(=O)C1CC2=C(CCCC2=O)N(Cc2ccccc2)C1=O (stereo not drawn) | -24%
Cc1ccc(OCC(=O)N/N=C/c2cccnc2)cc1 | 2%
COc1ccc(NC(=O)c2cn(C)c(=O)c3cc(OC)c(OC)cc23)c(OC)c1 | -14%
Oc1ccc(Cl)cc1CNc1cnc2ccccc2c1 | -14%
CCOC(=O)C1CCN(C(=O)c2ccc3c(c2)sc2nc(-c4ccc(OCC)cc4)cn23)CC1 | -1%
CSc1ccccc1C(=O)N1CCN(c2ncccn2)CC1 | -25%
COc1cc(CN2CCN(Cc3ccc(C(F)(F)F)cc3)CC2)cc(OC)c1OC | -8%
COc1ccc2c(c1)NC(c1cc(Cl)cc(Cl)c1O)c1cccn1-2 (stereo not drawn) | 2%
CCc1nnc(SCC(=O)N2CCCC(N3CCN(c4ccccc4C)CC3)C2)o1 (stereo not drawn) | -18%
COc1cccc(C(=O)NCc2ccc3c(c2)OCO3)c1OC | 8%
CC(=O)Nc1ccc(S(=O)(=O)Nc2ccc(Nc3ccccc3)cc2)cc1 | -4%
Cc1c(Br)c(O)c(Br)c2sc(=O)oc12 | u
CNC(=O)c1ccccc1-c1cn(C)c2ccccc2c1=O | -12%
CCOc1ccccc1Nc1nc(-c2sc(NC(=O)c3ccco3)nc2C)cs1 | 5%
CCN(C(=O)CSc1ncnc2sc(C)c(C)c12)C1CCS(=O)(=O)C1 (stereo not drawn) | 5%
N#Cc1cc2c(=O)n3ccccc3nc2n(-c2nnc(SCc3ccc(F)cc3)s2)c1=O | -1%
Cc1ccc(C(=O)N/C(=C\c2ccco2)C(=O)NC2CCS(=O)(=O)C2)cc1 (stereo not drawn) | 16%
CC(C)(C)N/C=C(\C#N)S(=O)(=O)c1ccc(Br)cc1 | 2%
Cc1cccc(C(=O)Nc2nc(C)c(C(=O)Nc3ccc4c(c3)CCC4)s2)c1 | 9%
COc1ccc(-c2cn(CCC(=O)O)c(-c3ccc(Cl)nc3)n2)cc1 | 5%
Cc1ccc(NC(=O)c2nc(S(C)(=O)=O)ncc2N(Cc2ccco2)Cc2cccs2)cc1C | 11%
O=C(C(=O)N1CCN(c2cccc(Cl)c2)CC1)c1c[nH]c2ccccc12 | -13%
Cc1ccccc1-c1nc(CN2CCC(C(=O)O)CC2)c(C)o1 | 9%
CC1(C2CC2)NC(=O)N(CC(=O)Nc2ccc(C(F)(F)F)cc2)C1=O (stereo not drawn) | 30%[activator]

Only part of the results is shown, so the mix of outcomes need not match the whole.
